Screening results as filed in PubChem BioAssay.
HNF4A DNA FP – change in binding of human HNF4A to DNA, primary screen, biochemical, fluorescence polarization, FITC-DNA. activity change, % at 10 µM. 360,000 tested, 0.3% active. AID 1224865, 2016. 1 h. Hepatocyte nuclear factor 4-alpha (Homo sapiens), P41235; in the data active = activity change above about 30%, passing the limit was not always enough;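 note: controls were the assay level and a saturating level of protein; the project sought stronger binding though the title names inhibitors; some compounds called inactive have numbers as strong as hits; positive values seem to mean higher polarization but the record does not say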
AF4-AF9 inh – inhibitors of AF4 peptide binding to AF9, primary screen, biochemical, AlphaScreen, biotin-AF4 peptide, FLAG-AF9, single point; Protein AF-9 (Homo sapiens), P42568; inhibition, % at 10 µM; 350,000 tested, 0.47% active;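 active = every replicate reaching a set inhibition limit, whatever the replicate mean, cut at about 25% in these data; inconclusive = mean inhibition reaches that limit but some replicates miss it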;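 note: 0% = plate neutral control median and 100% = total signal loss; the record names both 10 and 1 µM as test concentration; the first replicate is given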
Target sequence (P42568 whole entry, looked up): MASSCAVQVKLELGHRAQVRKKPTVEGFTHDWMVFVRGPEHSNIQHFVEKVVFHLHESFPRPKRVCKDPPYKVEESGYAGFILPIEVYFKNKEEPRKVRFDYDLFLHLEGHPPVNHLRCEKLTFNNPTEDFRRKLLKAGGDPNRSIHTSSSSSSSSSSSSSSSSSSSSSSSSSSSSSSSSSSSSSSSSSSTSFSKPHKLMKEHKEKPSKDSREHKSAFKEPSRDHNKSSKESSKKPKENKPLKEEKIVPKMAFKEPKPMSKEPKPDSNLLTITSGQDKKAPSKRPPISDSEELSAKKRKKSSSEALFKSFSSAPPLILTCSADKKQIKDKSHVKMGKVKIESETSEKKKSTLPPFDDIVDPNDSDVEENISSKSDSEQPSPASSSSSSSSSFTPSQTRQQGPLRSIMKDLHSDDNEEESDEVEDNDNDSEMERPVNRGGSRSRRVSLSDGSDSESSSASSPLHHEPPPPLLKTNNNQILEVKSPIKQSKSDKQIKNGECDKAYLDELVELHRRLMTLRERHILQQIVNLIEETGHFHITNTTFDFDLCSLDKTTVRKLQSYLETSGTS
Vif TR-FRET – inhibitors of Vif binding to APOBEC3G peptide, primary screen, biochemical, TR-FRET, GST-Vif 1-94, biotin-A3G peptide, dose response retest (AID 1117319) | Virion infectivity factor (Human immunodeficiency virus type 1 group M subtype B (isolate … | TR-FRET GST-Vif / biotin-A3G peptide binding; higher % means a stronger effect; test concentration not given here; strong numbers were not always called active | inhibition, %; hits with a dose series show IC50 in µM | 260,000 tested, 0.57% active;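 active = above the screen mean plus three standard deviations and confirmed in dose response; inconclusive = results disagree or hit not tested in dose response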;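 note: Vif residues 1-94 fused to GST binding biotinylated APOBEC3G peptide 110-148; 0% = full assay without inhibitor and 100% = GST in place of GST-Vif; retest series ran down from 100 µM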
RanGTP-Impb inh – inhibitors of RanGTP-importin-beta interaction, primary screen, biochemical, FRET, CFP-Ran, YFP-importin-beta, homogeneous | 300,000 tested, 1.1% active | AID 2216, 2009 | inhibition, % (test concentration not listed) | Ran GTPase (GTP-bound) - importin-beta complex | cell-free CFP-Ran/YFP-importin-beta FRET ratio;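 active = most replicates above 15%; inconclusive = exactly half above 15%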;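 note: 0% = DMSO wells and 100% = Ran loaded with GDP instead of GTP; wells of about 40 µL received 100 nL stock; the first replicate is given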
UCH37 inh – inhibitors of human UCH37 deubiquitinase, primary screen, biochemical, Ub-AMC cleavage, fluorescence; Ubiquitin carboxyl-terminal hydrolase isozyme L5 (Homo sapiens), Q9Y5K5; purified proteasome/UCH37; 330,000 tested, 0.33% active; inhibition, % (no concentration beside the values);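 active = mean of two replicates above 20%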;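 note: 0% = compound-free wells with enzyme and 100% = wells lacking proteasome; stock transfer was 100 nL into about 20 µL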
Target sequence (Q9Y5K5 whole entry, looked up): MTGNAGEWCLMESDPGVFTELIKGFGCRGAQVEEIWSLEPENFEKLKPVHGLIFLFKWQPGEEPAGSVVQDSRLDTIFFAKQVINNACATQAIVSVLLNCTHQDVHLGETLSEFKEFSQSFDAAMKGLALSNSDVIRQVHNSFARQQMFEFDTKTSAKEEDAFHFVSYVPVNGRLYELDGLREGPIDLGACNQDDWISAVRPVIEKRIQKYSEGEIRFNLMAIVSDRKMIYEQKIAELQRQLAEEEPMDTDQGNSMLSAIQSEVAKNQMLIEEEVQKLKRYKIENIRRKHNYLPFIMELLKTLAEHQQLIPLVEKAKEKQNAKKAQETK
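assay system = human UCH37 enzyme supplied as purified proteasome complex | amount = proteasome at 0.15 nM in the dispensed enzyme solution | schedule = 30 min compound-proteasome preincubation then 25 min substrate reaction, room temperature | measured by = fluorescence, ex 355 nm, em 460 nm | benchmarks = no-proteasome wells (full inhibition) and compound-free wells (no inhibition)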
E coli growth – E. coli growth inhibition, primary screen, OD600; AID 1053175, 2014; 330,000 tested, 0.21% active; OD600 absorbance (concentration not given with the values); Escherichia coli growth, 23 h; stronger effect = lower value;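 active = OD600 absorbance below the run mean of sample wells minus 3.6 SD, in any replicate, cut at about 0.56 in these data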;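 note: stock transfer was 300 nL into about 60 µL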
FGF22 binding – binders of human FGF22 protein, primary screen, FGF22 synaptogenesis inhibitor project, biophysical, thermal shift, single point; recombinant FGF22 thermal shift, SYPRO orange fluorescence; percent of sucrose octasulfate shift, DMSO zero; calls only at 9.99 µM; 340,000 tested, 1.5% active; AID 651658, 2012;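 active = melting point raised past a set limit in the mean and every replicate; inconclusive = no clear call; three in four hits are not shown here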
Target sequence (Q9HCT0 whole entry, looked up): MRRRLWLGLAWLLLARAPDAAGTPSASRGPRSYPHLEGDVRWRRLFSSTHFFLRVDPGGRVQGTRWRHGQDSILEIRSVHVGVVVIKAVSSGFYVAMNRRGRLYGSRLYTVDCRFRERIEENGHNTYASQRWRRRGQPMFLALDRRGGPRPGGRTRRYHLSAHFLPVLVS
The depositor's hits bear a star; i = inactive; ? = inconclusive; . = no result given; & = joins results of further samples. The list is partial, so the mix of outcomes need not match the whole.

Start of the listing, in advance, 4 compounds:
SMILES | HNF4A DNA FP | AF4-AF9 inh | Vif TR-FRET | RanGTP-Impb inh | UCH37 inh | E coli growth | FGF22 binding
CCc1ccc(OCC(=O)NNC(=O)CSc2nnc(-c3ccc(C)cc3)n2C)cc1 | 0.0 | . | 21% | -7.2 | 5.3 | 0.74 | .
Cc1ccc(NC(=O)CSc2nc3nc(C)c(Br)cc3[nH]2)cc1F | 3.9 | -5.5 | . | -0.4 | -0.4 | 0.71 | i
CCOC(=O)c1ccc(-n2c(C)ccc2C)cc1 | -1.1 | . | -5% | -3.3 | -1.2 | 0.71 | .
CCC1=NN(C(=O)c2ccc(Br)cc2)C(O)(c2ccccc2)C1 (stereo not given) | 1.7 | 1.2 | . | 0.0 | -2.1 | 0.66 | i

Main list, previewed entries included:
SMILES | HNF4A DNA FP | AF4-AF9 inh | Vif TR-FRET | RanGTP-Impb inh | UCH37 inh | E coli growth | FGF22 binding
CCc1ccc(OCC(=O)NNC(=O)CSc2nnc(-c3ccc(C)cc3)n2C)cc1 | 0.0 | . | 21% | -7.2 | 5.3 | 0.74 | .
Cc1ccc(NC(=O)CSc2nc3nc(C)c(Br)cc3[nH]2)cc1F | 3.9 | -5.5 | . | -0.4 | -0.4 | 0.71 | i
CCOC(=O)c1ccc(-n2c(C)ccc2C)cc1 | -1.1 | . | -5% | -3.3 | -1.2 | 0.71 | .
CCC1=NN(C(=O)c2ccc(Br)cc2)C(O)(c2ccccc2)C1 (stereo not given) | 1.7 | 1.2 | . | 0.0 | -2.1 | 0.66 | i
CCCc1ncc(C(O)c2cccc(OC)c2)n1C (stereo not given) | 3.3 | 13 | . | 3.3 | 0.7 | 0.66 | i
O=C(c1csc2c1CCCC2)N1CCN(c2cccc(C(F)(F)F)c2)CC1 | 1.4 | . | 8% | -1.4 | 2.2 | 0.73 | .
Cc1ccccc1C(=O)NNC(=O)/C=C/c1ccccc1 | 0.4 | -0.2 | -6% | -0.9 | 3.0 | 0.65 | i
COc1c(C)cccc1C(=O)NCc1ccc2c(c1)OCO2 | 2.5 | -2.8 | -3% | -6.2 | 4.2 | 0.68 | i
O=c1cc(CN2CCN(C/C=C/c3ccccc3)CC2)c2cc(O)ccc2o1 | 1.4 | . | 3% | -2.3 | -4.2 | 0.64 | .
NS(=O)(=O)c1ccc(CCNS(=O)(=O)c2cccc3nsnc23)cc1 | 0.8 | -0.7 | . | 7.8 | 2.5 | 0.68 | i
CCOC(=O)CCc1cccc2c1CCC2=O | -1.5 | . | -1% | -2.1 | -0.8 | 0.69 | .
COC(=O)c1ccc(NC(=O)CC(=O)Nc2ccc(C(=O)OC)cc2)cc1 | 2.8 | 0.5 | 0% | ? | 2.3 | 0.73 | i
Cc1cc(=O)oc2cc(OCC(=O)NC3CCCCC3)c(Cl)cc12 | -2.3 | 0.5 | 0% | . | -57 | 0.69 | i
CN1C(=O)C(C)(C)c2cc(S(=O)(=O)NCC(=O)NCc3ccccc3)ccc21 | 3.8 | . | . | 1.2 | 0.0 | 0.68 | .
N/C(=N\S(=O)(=O)c1cccs1)c1ccccc1 | 1.5 | . | 2% | -1.4 | 1.8 | 0.76 | .
O=c1oc2ccccc2cc1-c1csc(NN=C2CCCCC2)n1 | 1.9 | . | 5% | 9.6 | -27 | 0.69 | .
Cc1noc(C)c1S(=O)(=O)N1CCCC1C(=O)O (stereo not given) | -0.5 | 1.6 | . | 5.3 | -0.4 | 0.62 | i
CC(C)Cn1cnc2c1c(=O)n(CC(=O)NC(=O)NC(C)(C)C)c(=O)n2Cc1ccccc1 | 4.1 | 0.4 | . | -1.1 | -0.4 | 0.69 | i
CCOC(=O)c1[nH]c(C)c(CN(CCc2ccc(OC)c(OC)c2)C(=O)CCCC(=O)O)c1C | 1.4 | . | 7% | 0.2 | 3.0 | 0.74 | .
COc1cc(NC(=O)c2cc([N+](=O)[O-])ccc2NC(=O)CNC2CCCCC2C)cc(OC)c1 (stereo not given) | -1.1 | 0.7 | . | 0.6 | 6.0 | 0.67 | i
COCCn1c(SCc2cc(=O)n3ccsc3n2)nnc1-c1ccncc1 | -0.8 | -1.7 | 20% | 2.0 | 4.2 | 0.66 | i
Cn1cccc1CC(=O)N/N=C\c1ccccc1 | -1.1 | 4.1 | 0% | -2.3 | . | . | i
CC(C)(C)c1ccc(C(=O)N2CCCC2)s1 | 1.6 | -10 | 0% | 2.9 | 0.2 | 0.64 | i
O=C(COc1ccccc1Cl)N1CCN(c2ccc([N+](=O)[O-])c(N3CCCCC3)c2)CC1 | -1.1 | 10 | -6% | -2.1 | 7.7 | 0.69 | i
CCN(CC)S(=O)(=O)c1ccc(N2CCOCC2)c(NC(=O)CNCCc2ccccc2)c1 | 1.9 | 4.7 | 7% | 4.2 | 2.9 | 0.69 | i
Cc1cccn2c(CN3CCSCC3)c(C(=O)N3CCOCC3)nc12 | -1.9 | -0.8 | -2% | -2.7 | -0.9 | 0.71 | i
Cc1ccc(N(C(=O)c2ccco2)C(C(=O)NC2CCCC2)c2cccnc2)cc1C (stereo not given) | 0.6 | -0.7 | 5% | 1.0 | 2.6 | 0.7 | i
Cc1ccc(C)c(S(=O)(=O)/N=C(/Nc2ccccc2)c2ccccc2)c1 | 0.8 | 2.9 | -14% | . | 2.6 | 0.71 | i
Cc1cc(OCCN2CCOCC2)ccc1Cl | 1.5 | 3.5 | . | -1.1 | 1.4 | 0.69 | i
Cc1ccc(N/C=C/C(=O)c2cccs2)cc1C | 1.1 | 3.6 | -2% | -1.8 | -5.2 | 0.71 | i
O=C(COc1ccc(Cl)cc1)Nc1ccccc1N1CCOCC1 | . | . | -6% | -1.3 | 0.9 | 0.65 | .
O=C(Nc1nc2ccccc2s1)C1c2ccccc2Oc2ccccc21 | -3.2 | . | 14% | 6.4 | . | . | .
CC1=C(C#N)C(NC(=O)C2CCCCC2)(C(F)(F)F)C(=O)N1 (stereo not given) | 3.5 | . | -3% | -4.4 | 2.2 | 0.68 | .
Cc1cc(NC(=O)COC(=O)c2ccccc2[N+](=O)[O-])no1 | -2.4 | 0.5 | 4% | -1.0 | -1.4 | 0.67 | i
O=C(CNCc1ccc(Cl)cc1)Nc1cc(S(=O)(=O)N2CCCC2)ccc1Cl | 1.0 | 0.3 | . | . | 0.6 | 0.67 | i
O=C(CS(=O)(=O)c1ccc(Cl)cc1)NCc1ccccc1 | 1.4 | -1.6 | . | 1.5 | 4.2 | 0.71 | i
O=C(CCn1cccc1)NCc1ccc2c(c1)OCO2 | -4.0 | . | ? | 2.5 | 0.1 | 0.69 | .
O=C(c1c[nH]c2ccccc2c1=O)N1CCCCCC1 | -1.5 | -1.1 | . | -0.1 | 3.1 | 0.67 | i
O=C(NCCNC(=O)c1ccc(F)cc1)c1ccc(F)cc1 | -0.5 | 1.6 | . | -4.3 | 1.6 | 0.7 | i
CC1CCC(NC(=O)CNC(=O)c2cccs2)CC1 (stereo not given) | 0.0 | -0.5 | 10% | 1.4 | 4.9 | 0.71 | i
COc1ccc(C(=O)NCC(c2cccnc2)N2CCN(c3ccccc3OC)CC2)cc1OC (stereo not given) | 1.6 | 2.2 | 9% | -1.8 | 3.7 | 0.74 | i
Cn1c(SCc2ccccc2F)nnc1-c1ccccn1 | 1.5 | -1.7 | 1% | 20* | 4.2 | 0.7 | i
CCCCCCCCNC1=CC(=O)CC(C)(C)C1 | -3.3 | -1.6 | . | 0.5 | 5.0 | 0.68 | i
CS(=O)(=O)N(CC(=O)N1CCN(c2ccccc2F)CC1)C1CCCCC1 | 1.6 | -0.9 | 2% | -4.1 | -0.8 | 0.67 | .
CS(=O)(=O)Nc1ccccc1C(=O)Nc1cc2c(cc1C(=O)O)OCCCO2 | 2.0 | -1.0 | -1% | -0.5 | . | . | i
CC(C)c1ccc(-c2csc3ncnc(N4CCN(C)CC4)c23)cc1 | 0.5 | 0.9 | 0% | -3.2 | 4.9 | 0.63 | i
CN(Cc1ccccn1)C(=O)C1CCC(=O)N(Cc2cccc(F)c2)C1 (stereo not given) | -1.7 | -0.8 | . | 1.2 | 3.9 | 0.71 | i
O=C(CN1CCN(c2ccc(F)cc2)CC1)OCc1ccccc1 | 4.0 | . | 2% | -1.2 | -0.7 | 0.68 | .
O=C1NC[C@H](Cc2ccccc2)N(C[C@@H]2CCCN2C[C@H](Cc2ccc(O)cc2)N2C[C@H](Cc3ccc(O)cc3)N(CC3CCCCC3)C(=O)C2=O)C1=O | 1.5 | 2.4 | . | . | . | . | i
CN(C(=O)c1ccc(NC(=O)Cc2ccc(NC(=O)C3CCCN(C(=O)C4CCC4)C3)cc2)cc1)C1CC1 (stereo not given) | -1.7 | -5.1 | . | . | 1.7 | 0.7 | i
CN1/C(=C\C(=O)Nc2ccc(Br)cc2)C(C)(C)c2ccccc21 | -2.8 | -2.9 | 19% | ? | 1.7 | 0.68 | i
CCOC(=O)N1CCC(=NNc2ccnc3cc(Cl)ccc23)CC1 | 0.1 | 14 | -5% | . | 3.4 | 0.65 | i
O=C(c1ccco1)N1CCN(c2cc(N3CCOCC3)c(F)cc2[N+](=O)[O-])CC1 | -0.2 | -10 | 0% | 6.0 | 11 | 0.65 | .
COc1ccc(C)cc1-n1c(SCC(=O)Nc2cccc(C(=O)O)c2)nc2ccccc2c1=O | -3.5 | -23 | . | -1.8 | 0.7 | 0.66 | i
CCC1CC2CC(NC(C)=O)C1C2 (stereo not given) | -0.3 | . | 4% | . | 1.9 | 0.73 | .
CCN(CC)C(=O)Cn1cc(C(=O)C(=O)N2CCc3ccccc32)c2ccccc21 | -5.4 | 3.7 | -5% | -0.1 | 2.8 | 0.71 | .
CC(=O)Oc1ccc(-c2ccc(C(=O)NCCc3ccc(S(N)(=O)=O)cc3)cc2)cc1 | 2.2 | 1.7 | . | 1.3 | -0.8 | 0.7 | i
COc1ccc2oc(C)c(C(=O)c3ccc(C)cc3)c2c1 | 3.1 | -1.8 | -4% | 1.3 | -0.1 | 0.68 | i
COc1cc2c(cc1NC(=O)CSc1nc3ccc(C)cc3[nH]1)oc1ccccc12 | . | . | 20% | 3.2 | 0.7 | 0.66 | .
Cc1ccc(O)c(CNc2nc3ccccc3n2C)c1 | 4.0 | . | 1% | 2.9 | 3.9 | 0.68 | .

Other structures follow:
SMILES | HNF4A DNA FP | AF4-AF9 inh | Vif TR-FRET | RanGTP-Impb inh | UCH37 inh | E coli growth | FGF22 binding
COc1ccc2c(COC(=O)CNS(=O)(=O)c3ccc(C)c(C)c3)cc(=O)oc2c1 | 4.6 | -1.2 | 0% | . | -172 | 0.69 | i
N#Cc1ccc(CSc2ccc(S(=O)(=O)N3CCCCCC3)cn2)cc1 | 3.8 | -0.2 | -1% | . | 8.0 | 0.72 | .
COc1ccccc1C(=O)NCCn1cc(SCC(=O)NCc2ccco2)c2ccccc21 | 4.0 | 2.6 | 9%&27% | -2.0 | 2.4 | 0.67 | i
Cc1cc(NC(=O)/C(C#N)=C/c2ccco2)n(-c2ccccc2)n1 | -0.8 | 4.0 | . | -1.6 | 16 | 0.68 | i
Cc1ccc(-c2cc(C(=O)N(C)Cc3cnn(C)c3C)c3cc(Br)ccc3n2)cc1 | 0.5 | 3.9 | -40% | 5.1 | 2.6 | 0.66 | i
COc1ccccc1C(=O)O/N=C1/CCCc2c1ccc(OC)c2[N+](=O)[O-] | 0.9 | . | 5% | -3.0 | . | . | .
